# KSHV LANA nucl: LANA-nucleosome interaction inhibition; actives 0.3% (n = 51,000); FITC-LANA1-23 / chicken nucleosome fluorescence polarization; stronger effect = lower value; z-score (no concentration beside the values); AID 720717;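 active = both repeat wells score below -2 in polarization z-score versus plate sample wells, excluding overly bright wells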;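 note: 100 nL library stock added to about 30 µL; numbers are from one replicate; some results filed as inactive read as strong as hits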
#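 Assay system: FITC-LANA peptide and chicken nucleosomes; input: 240 nM purified chicken nucleosomes (480 nM peptide binding sites), final; also added: 50 nM FITC-LANA1-23 probe; medium: TEN-BT buffer, pH 7.5; doses: pin-transferred compound, 100 nL; times: 10–45 min, room temperature; technique: fluorescence polarization; replication: duplicates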
# BasE inh: BasE siderophore biosynthesis inhibition; purified BasE, fluorescence polarization binding displacement; inhibition, % (no concentration beside the values); actives 0.1% (n = 84,000); AID 485350;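 active = both replicates above 25% with normal brightness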;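 note: 0% = negative plate control signal and 100% = positive plate control signal; stock transfer was 100 nL into about 30 µL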
# * = called active by the depositor; . = no result given. The list is partial; rates above refer to the full screens.
# Every second line gives: KSHV LANA nucl	BasE inh
- Cc1ccc(Cl)cc1N1CCN(C(CC(=O)O)C(=O)c2ccc(F)cc2)CC1 (stereo unspecified)
    .	1.9
- C/C(=N\NC(=O)CN1C(=O)c2cccc3cccc1c23)C(C)(C)C
    .	3.1
- Cc1ccc(C)c(NC(=O)CSCc2cnn(-c3ccccc3)c2-n2cccc2)c1
    0.23	-1.4
- O=C(O)C(C(=O)/C=C/c1ccccc1)=C1SCCS1
    .	-0.3
- O=C(c1ccc(Cl)cc1)N1c2ccccc2OC1c1ccc2c(c1)OCO2 (stereo unspecified)
    1.5	-2.2
- O=C(N/N=C1/CCSc2ccc(F)cc21)C1CC1
    .	-0.3
- CN(C1CCCCC1)S(=O)(=O)c1cn(C)c(=O)n(C)c1=O
    .	0.1
- COC(CN(C)S(=O)(=O)c1ccc(Br)cc1)OC
    -0.13	0.7
- NC(=O)CN(CC(N)=O)S(=O)(=O)c1ccccc1
    2.5	-0.8
- CCNC(=O)c1cccc(OC(C)C)c1
    -0.028	1.1

# (listing goes on)
# Every second line gives: KSHV LANA nucl	BasE inh
- CCS(=O)(=O)CC(C)C
    -0.23	-0.2
- OC(COC(c1ccccc1)c1ccccc1)CN1CCCCC1 (stereo unspecified)
    0.073	-1.1
- CCOC(=O)Cn1c(=O)sc2ccccc21
    0.52	2.8
- Cc1nn(-c2ccc(Cl)cc2)c2sc(C(=O)N3CCCCC3)cc12
    .	0.8
- CCc1c(C)nc2cc(-c3cc(OC)cc(OC)c3)nn2c1NCCCN1CCOCC1
    0.033	-0.2
- O=C(N/N=C/c1ccccc1)Nc1ccccc1
    1	-1.7
- O=C(Cc1ccccc1)Nn1cnc2c(cnn2-c2ccccc2)c1=O
    -0.8	-1.3
- O=C1CC(c2ccc(S(=O)(=O)NCCOc3ccccc3)cc2)CN1 (stereo unspecified)
    0.06	-0.9
- Cc1onc(-c2c(Cl)cccc2Cl)c1C(=O)N1CC=CCC1
    0.21	.
- O=C1CCCc2c1[nH]c1ccccc21
    0.33	-2.3

# (list continues)
# Every second line gives: KSHV LANA nucl	BasE inh
- Cc1noc(C)c1C(=O)OCC(=O)Nc1ccc(SC(F)F)cc1
    .	-1.0
- COc1ccc(CNC(=O)C2CC(=O)N(C(C)(C)C)C2)cc1 (stereo unspecified)
    -0.41	.
- COc1ccc(OC)c(C(O)c2coc3ccc(O)c(CN(C)C)c23)c1 (stereo unspecified)
    0.51	-2.9
- Cc1cc(C)n(NC(=S)NCc2cccs2)c(=O)c1C#N
    .	2.4
- NC(=S)Nc1ccc2c(c1)OCCO2
    .	2.2
- NC(=O)/C=C\c1ccccc1Oc1ccccc1
    0.039	.
- CC(C)(C)NCC(O)COc1ccccc1C1CCCC1 (stereo unspecified)
    1.4	-3.1
- Cc1ccc(C(=O)CSc2[nH]c(=O)ncc2C)cc1
    1.2	1.2
- O=C(O)CCCCn1c(=S)[nH]c2ccsc2c1=O
    0.86	1.7
- CCC(Sc1nnc(N)s1)C(=O)Nc1ccc(S(N)(=O)=O)cc1 (stereo unspecified)
    0.089	-1.8

# Next part.
# Every second line gives: KSHV LANA nucl	BasE inh
- Cc1nc2scc(-c3ccccc3)c2c(=O)n1/N=C/c1ccco1
    .	3.6
- CC1CN(S(=O)(=O)c2cccc(C(=O)OCC(N)=O)c2)CC(C)O1 (stereo unspecified)
    .	0.1
- C1=Cc2ccccc2N2CC(c3ccc4ccccc4c3)N=C12 (stereo unspecified)
    .	0.6
- N#C/C(=C\c1cc(Br)c(O)c(Br)c1)C(N)=O
    .	4.1
- CCCCS(=O)CSc1nc(-c2ccc(OC)cc2)cc(-c2ccccc2)c1C#N (stereo unspecified)
    .	1.5
- CC1(C)Cc2ccccc2/C(=C(/C#N)c2ccccc2)N1
    0.33	5.9
- COc1ccc(-c2nnc(SCCN3C(=O)c4ccccc4C3=O)o2)cc1
    .	1.1
- Cc1ccc(NC(=O)CN2C(=O)CC(c3ccccc3)C2=O)cc1C (stereo unspecified)
    .	3.7
- COC(=O)c1ccc(COC(=O)C23CC4CC(CC(O)(C4)C2)C3)o1
    .	-2.5
- COc1ccc(C(=O)Cc2ccc(OC)c(OC)c2)c(OC)c1
    1.2	-0.6

# Entries of single compounds as entered above:
# NC(=O)/C=C\c1ccccc1Oc1ccccc1 is listed with KSHV LANA nucl: 0.039; BasE inh: .
# COC(CN(C)S(=O)(=O)c1ccc(Br)cc1)OC is listed with KSHV LANA nucl: -0.13; BasE inh: 0.7
# Cc1ccc(C)c(NC(=O)CSCc2cnn(-c3ccccc3)c2-n2cccc2)c1 is listed with KSHV LANA nucl: 0.23; BasE inh: -1.4

# (cont.)
# Every second line gives: KSHV LANA nucl	BasE inh
- N#Cc1ccc(OC(=O)Cc2coc3cc4c(cc23)CCC4)cc1
    .	-2.5
- COC(=O)c1cnn2c(C(F)(F)F)cc(-c3ccccc3)nc12
    0.11	0.5
- O=C(Nn1cnc2c(cnn2-c2ccccc2)c1=O)c1ccccc1
    -2.1*	0.1
- C=CCOc1ccccc1CN1CCCCC1
    0.29	-1.7
- c1ccc(CNC2CCCC2)nc1
    0.2	0.2
- O=C(COC(=O)c1ccccc1Cl)NC1CCCC1
    .	-1.7
- CCn1c(-c2ccccc2)c(C(=O)CSc2nnc(-c3cccnc3)n2N)c2ccccc21
    .	0.6
- COC(=O)c1ccc(CSc2ncnc3[nH]ncc23)cc1
    .	6.2
- N#CC1=C(N)N=C(SCC(=O)Nc2nccs2)C(C(N)=O)C12CCCCC2 (stereo unspecified)
    -0.72	1.4
- CCC(C)OC(=O)C(C)Oc1ccc2c3c(c(=O)oc2c1)CCC3 (stereo unspecified)
    .	0.0

# Next part.
# Every second line gives: KSHV LANA nucl	BasE inh
- COC(=O)c1sccc1NC(=O)CC1(CC(=O)O)CCCC1
    .	-1.7
- Cc1ccc(C)c(-n2nnnc2SCC(=O)Nc2cc(C(N)=O)cc(C(N)=O)c2)c1
    .	-1.5
- CCOC(=O)/C(C#N)=C1\SCC(=O)N1c1ccc(OC)cc1
    .	-0.7
- COc1ccc2c(c1)CCc1c(C(=O)Nc3cc(C)n(Cc4ccc(Cl)cc4)n3)noc1-2
    -0.61	0.6
- CCc1ccc(/C=N/N2CCOCC2)cc1
    .	0.8
- CCCCC1(C)OC(=O)C(=Cc2ccc(OCC)c(OC)c2)C(=O)O1 (stereo unspecified)
    .	0.2
- O=c1c2cc3c(=O)n(Cc4cccs4)ccc3nc2ccn1Cc1cccs1
    0.96	-4.4
- O=C(c1ccccc1)N1CCC(O)(c2cccnc2)CC1
    -0.055	1.5
- O=C(Oc1cc(=O)oc2c1c(=O)n1c3c(cccc23)CC1)c1ccccc1
    .	-1.7
- CC(C)(C)c1nn2cnnc2n(/N=C/c2ccccc2)c1=O
    -0.61	0.1

# Next records
# Every second line gives: KSHV LANA nucl	BasE inh
- CCOC(=O)COc1ccccc1/C=N/O
    0.34	2.5
- COCCn1c(SCC(=O)c2ccc3c(c2)CCCN3S(C)(=O)=O)nc2ccccc21
    .	-0.2
- Cc1nnc(SCc2cccc(C(=O)c3ccccc3)c2)[nH]c1=O
    .	-5.3
- N#C/C(=C(/O)C(F)(F)F)c1nc2ccccc2[nH]1
    .	0.9
- CN(CCN1CCOCC1)C1CCN(C(=O)CNC(=O)/C=C/c2cccs2)CC1
    0.44	-0.6
- O=C(Oc1ccc2ccccc2c1)N1CCOCC1
    -1	-1.0
- COc1ccccc1N(Cc1c(C)noc1C)S(=O)(=O)c1cccs1
    .	0.2
- O=C1S/C(=C\c2ccccc2)C(=O)N1CN1CCOCC1
    -0.79	-0.8
- Cc1ccc2[nH]c3c(c2c1)CCCC3NC1CCCCC1 (stereo unspecified)
    .	0.9
- CC(C)c1ccccc1NC(=O)C1CCCCC1
    -1.3	0.6

# Other results.
# Every second line gives: KSHV LANA nucl	BasE inh
- S=C1NCN(Cc2ccncc2)CN1
    .	2.9
- Cc1ccn2c(=O)c(NC(=O)C3CCCCC3)c(C)nc2c1
    1.3	-0.8
- CCOC(=O)/C(C#N)=C1\C(=O)Nc2ccccc21
    0.17	-4.4
- CCCN1Cc2cccc(C(=O)NC3CCCCCC3)c2C1=O
    0.21	1.4
- C=CCN1C(=O)c2oc3ccccc3c(=O)c2C12C(=O)N(C)c1ccccc12 (stereo unspecified)
    -0.48	-2.4
- CCn1c(C(F)(F)F)nc2ccccc21
    -0.35	.
- O=c1ccc(-c2ccc(S(=O)(=O)NCCC3=CCCCC3)s2)n[nH]1
    .	2.3
- CCCCn1c(CCc2ccc(S(=O)(=O)N3CCOCC3)cc2)nc2cc(S(N)(=O)=O)ccc21
    .	0.3
- Cc1cc2ncc(-c3ccnc(SCc4c(Cl)cccc4Cl)n3)c(C)n2n1
    .	0.5
- CCCSc1nc2c(c(-c3ccco3)c1C#N)CCCC2
    2.2	-3.7

# The results go on:
# Every second line gives: KSHV LANA nucl	BasE inh
- Cn1c(=NC(=O)CSCC(=O)N2CCCC2)sc2cc(Br)ccc21
    -0.026	0.6
- Cc1noc(C)c1CSCC(=O)Nc1nccs1
    .	0.7
- Cc1oncc1C(=S)Nc1ccccc1
    0.23	0.9
- C=CCn1c(=O)c2ccccc2n2c(SCC(N)=O)nnc12
    .	1.1
- COc1ccc(N(Cc2nc3ccccc3o2)S(=O)(=O)c2cc(C)ccc2C)cc1
    .	0.8
- COC(=O)CNC(=O)c1ccco1
    .	2.1
- COC(=O)c1cc(-c2ccccc2)c(N2CCCC2)s1
    -0.1	-0.2
- CCn1cc(C(=O)O)cn1
    0.26	0.8
- O=C(CN1CCN(Cc2nc3ccccc3s2)CC1)N1CCc2ccccc21
    .	-2.3
- CC(C)CC(=O)Nc1ccccc1-c1nnn(CC(=O)N2CCc3ccccc3C2)n1
    0.16	1.5

# New compounds follow
Compound,KSHV LANA nucl,BasE inh
Cc1cc(=O)n2nc(CN3CCN(C4CCS(=O)(=O)C4)CC3)sc2n1 (stereo unspecified),.,2.3
O=C(NCC(=O)N1CCC(n2c(=O)[nH]c3ccccc32)CC1)c1ccc2ccccc2c1,.,-0.7
O=C(O)CCc1ccc(-c2cccs2)n1NC(=O)c1cccs1,2.7,-1.5
N#Cc1cc(Oc2ccc(C(=O)c3ccccc3)cc2)nc2ccccc12,.,3.0
CCOC(=O)C1CCN(C(=S)NC2Cc3ccccc3C2)CC1,.,4.3
CC(C)(C)c1ccc(C(=O)NCCc2ccccn2)cc1,.,1.1
N#CN(Cc1ccccc1)Cc1ccccc1,0.27,.
CCN(CC)S(=O)(=O)c1ccc(S(=O)(=O)N2CCN(C)CC2)cc1,-0.4,-1.3
CN(C)/N=C/c1ccc(OC(=O)c2ccco2)cc1,.,-0.7
COc1ccc(N(C)C(=S)Nc2ccc3nc(-c4ccco4)c(-c4ccco4)nc3c2)cc1,-0.94,2.9
O=C(CSc1nc2ccccc2s1)n1c2ccccc2c2ccccc21,.,0.9
CC(C)CC1NC(=O)N(CCCCN2C(=O)c3ccccc3C2=O)C1=O (stereo unspecified),.,1.3
CCc1ccc(CNC(=O)CCn2c(=O)oc3ccccc32)cc1,-1.1,0.4
CSc1ccc(C2CC(=O)N3CN(C)CSC3=C2C#N)cc1 (stereo unspecified),-0.45,0.1
CCCC1(C(=O)OCC)NC(c2ccc(N(C)C)cc2)C2C(=O)N(c3ccc(OCC)cc3)C(=O)C21 (stereo unspecified),-0.067,1.2
Cc1ccc2c(c1)N(CCC(=O)O)C(=O)CO2,0.61,2.5
COC(=O)C1C(c2ccccc2)C(C(=O)OCc2ccco2)C1c1ccccc1 (stereo unspecified),-0.61,2.9
CCS(=O)(=O)N1CCC(C(=O)N2CCOCC2)CC1,-1.8,2.6
COc1ccc2c(c1)CN(CCc1ccc(Cl)cc1)CO2,0.081,-3.2
CCCS(=O)(=O)NCc1ccco1,.,3.2
COC(=O)c1cn(CC(=O)Nc2ccc(OC)cc2)c2ccccc12,0.58,-0.6
O=C(Oc1ccc(-c2csnn2)cc1)c1cc(C(F)(F)F)cc(C(F)(F)F)c1,.,-0.8
NC(=O)NN=C1c2cc(S(=O)(=O)NCCO)ccc2-c2ccc(S(=O)(=O)NCCO)cc21,-1.2,5.3
O=C(CCC(=O)N1CCC(c2ccccc2)=N1)N1CCN(c2ccccc2)CC1,.,0.3
CC(C)CN(CC(C)C)C(=O)C1c2ccccc2Oc2ccccc21,.,2.5
[O-][n+]1c2c(nn1-c1ccccc1)CCc1ccccc1-2,.,1.7
CN(CCO)CC(O)Cn1cnc2c1c(=O)n(C)c(=O)n2C (stereo unspecified) (tested in a mixture with another compound),0.67,.
COc1ccc(C(=O)OCC(=O)c2cc3c4c(c2)CC(=O)N4CCC3)cc1Br,.,-6.9
CCCn1c(=NC(=O)c2cccs2)sc2cc(S(C)(=O)=O)ccc21,-0.51,1.1
Nc1nc2sc3c(c2cc1C(=O)NCC(=O)O)CCCC3,0.55,1.3

# Marked active in KSHV LANA nucl (from the list above):
structure	KSHV LANA nucl
O=C(Nn1cnc2c(cnn2-c2ccccc2)c1=O)c1ccccc1	-2.1*

# Next structures:
Compound,KSHV LANA nucl,BasE inh
CC(C(=O)N1CCCC1)N1CCN(c2ccc(F)cc2)CC1 (stereo unspecified),0.038,2.0
C=CCC(NC(C)c1ccco1)c1ccccc1 (stereo unspecified),0.4,0.8
CCC1CCCCN1C(=O)CSc1nnc(CNC(=O)c2ccco2)o1 (stereo unspecified),0.22,1.8
CCS(=O)(=O)c1ccc(O)c(NC(=O)CSCC(=O)O)c1,-0.46,-1.5
O=c1cc(CSc2ncccn2)nc2sccn12,.,0.9
Cc1cccc(-c2noc(CNC(=O)C34CC5CC(CC(C5)C3)C4)n2)c1,-0.19,1.2
Cc1sc2nc(SC(C)C#N)n(C(C)C)c(=O)c2c1C (stereo unspecified),.,-1.2
O=C1CCCN2N=C(SCC(=O)NCc3ccco3)SC2=N1,-0.15,0.0
c1ccc(N2CCN(CSc3nc4ccccc4s3)CC2)cc1,.,-3.2
